Cruzain noTriton – qHTS Assay for Promiscuous and Specific Inhibitors of Cruzain (without detergent); purified cruzain, Z-FR-AMC fluorescence, no detergent; Potency, µM, inactives show max response, negative = inhibition, actives largely listed as inhibitors; actives 2.3% (n = 200,000); active = well fitted curve in the direction sought with a large enough effect; inconclusive = small, poorly fitted or top-dose-only effect, or another doubt; inactive = no such curve, though single readings can be large; an effect the other way counts as inactive or inconclusive;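 also: plate controls were enzyme without inhibitor for no effect and buffer without enzyme for full effect; nearly all actives have a fitted effect of over 40% in size; top concentration of the series not given in the record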
Target sequence (P25779 123-467 limits assumed): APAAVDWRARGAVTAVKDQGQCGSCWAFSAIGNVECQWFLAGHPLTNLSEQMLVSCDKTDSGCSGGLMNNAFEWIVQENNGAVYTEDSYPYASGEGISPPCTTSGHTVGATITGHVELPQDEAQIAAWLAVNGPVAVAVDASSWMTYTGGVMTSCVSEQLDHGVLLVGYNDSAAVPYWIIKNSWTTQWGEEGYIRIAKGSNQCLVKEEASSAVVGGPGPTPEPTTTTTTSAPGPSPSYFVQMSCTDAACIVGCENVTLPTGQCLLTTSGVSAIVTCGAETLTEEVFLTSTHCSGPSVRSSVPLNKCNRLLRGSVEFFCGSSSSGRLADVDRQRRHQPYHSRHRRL
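Purified cruzain at 1.5 nM, pre-incubated 15 min with compound at room temperature in 100 mM sodium acetate pH 5.5, 5 mM DTT, 0.00005% Triton X-100. Reaction started with 2 uM Z-FR-AMC; AMC fluorescence increase over 60 s gives rate.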
Lassa entry inh – qHTS for Inhibitors of binding or entry into cells for Lassa Virus; actives 1.2% (n = 300,000); Lassa virus pseudotype entry inhibition, cell reporter; control for the full effect not named in the record; Potency, µM (doses to about 37.9 µM), inactives show at the highest dose activity change, negative = inhibition, most hits filed as inhibitors; active means well fitted inhibition curve with a large enough effect; inconclusive means small, poorly fitted or top-dose-only effect, or effect the other way; inactive means flat fitted curve, though single readings scatter; tested in HEK293 cells; also: % is scaled to controls: 0 for no effect and ±100 for the full control effect; nearly all actives have a fitted effect of over 50% in size; luciferase read-out
Marburg entry inh – qHTS for inhibitors of binding or entry into cells for Marburg Virus; Potency, µM (series often up to 37.8 µM), without a hit: at the highest dose activity change, negative = inhibition, actives largely listed as inhibitors; AID 540276, 2011; Marburg virus pseudotyped entry inhibition, cell reporter; control for the full effect not named in the record; about a third of the inactives were read at about 46 µM; actives 1.8% (n = 300,000); active = well fitted inhibition curve with a large enough effect; inconclusive = small, poorly fitted or top-dose-only effect, or effect the other way; inactive = flat fitted curve, though single readings scatter; tested in HEK293 cells; about a fifth of its hits are not listed in these tables; also: % is scaled to controls: 0 for no effect and ±100 for the full control effect; luciferase read-out
StopGo reporter – High Throughput Screening for Foot and Mouth Disease Virus Antivirals | Potency, µM (highest dose often 57.9 µM), without a hit: top-dose signal change, negative = less light | human cells with a luciferase reporter of 2A StopGo recoding; control for the full effect not named in the record | actives 1.2% (n = 410,000) | AID 1159524, 2015; active = well fitted falling curve with a large enough effect; inconclusive = small, poorly fitted or top-dose-only effect; inactive = no such curve, though single readings can be large or run the other way; tested in HEK293T cells; also: % is scaled to controls: 0 for no effect and ±100 for the full control effect; nearly all actives have a fitted effect of over 45% in size; luciferase light after 4 h
SARS PLP yeast – qHTS of Yeast-based Assay for SARS-CoV PLP. Potency, µM (highest dose often 32.9 µM), without a hit: at the top dose activity, positive = growth rescue. S. cerevisiae expressing SARS-CoV PLpro, growth rescue; control for the full effect not named in the record. actives 0.19% (n = 330,000); also: 0% is about no effect; nearly all actives have a fitted effect of over 55% in size; growth read by luminescence after 48 h
NS1 function inh – qHTS Assay for Inhibitors of Influenza NS1 Protein Function. S. cerevisiae slowed by influenza A NS1, growth recovery by OD600. Potency, µM (top dose mostly 46.1 µM), inactives show at the highest dose activity, positive = more growth. actives 0.4% (n = 270,000); also: actives are rising curves; nearly all actives have a fitted effect of over 50% in size
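Compounds were scored for reversing the slow growth caused by influenza A NS1 in S. cerevisiae, measured by optical density at 600 nm. Assay medium contained 2% galactose at pH 6.0; NS1-free yeast of the same strain were the positive control.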
RE007 growth inh – qHTS Assay for Inhibitors of the HIV-1 protein Vpr | actives 0.21% (n = 360,000) | S. pombe RE007 Vpr strain, BacTiter-Glo ATP luminescence, 24 h; control for the full effect not named in the record | Potency, µM (highest dose often 92.2 µM), inactives show at the highest dose activity change, negative = less growth | AID 651644, 2012; active = well fitted falling curve with a large enough effect; inconclusive = small, poorly fitted or top-dose-only effect; inactive = no such curve, though single readings can be large or run the other way;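 also: % is scaled to controls: 0 for no effect and ±100 for the full control effect; nearly all actives have a fitted effect of over 50% in size; the assay follows cell death caused by Vpr and the record does not say whether a fall means rescue or toxicity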
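Fission yeast RE007 carrying one integrated HIV-1 vpr copy, seeded at OD 0.01 in PMG+AL medium with 23 nL pinned compound. Grown 24 h at 30 degrees; viability read by BacTiter-Glo luminescence after 5 min.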
Cruzain inh Det – qHTS Assay for Promiscuous and Specific Inhibitors of Cruzain (with detergent). Cruzipain (Trypanosoma cruzi), P25779. purified cruzain, Z-FR-AMC fluorescence, 0.01% Triton. Potency, µM, inactives show max response, negative = inhibition, hits mostly inhibitors. actives 0.43% (n = 200,000); active = well fitted curve in the direction sought with a large enough effect; inconclusive = small, poorly fitted or top-dose-only effect, or another doubt; inactive = no such curve, though single readings can be large; an effect the other way counts as inactive or inconclusive;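 also: plate controls were neutral wells for no effect and buffer without enzyme for full effect; nearly all actives have a fitted effect of over 40% in size; top concentration of the series not given in the record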
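Detergent-containing arm of a paired screen for aggregation-based inhibition: 0.01% Triton X-100 present. Cruzain at 1.5 nM cleaved 2 uM Z-FR-AMC at pH 5.5 with 5 mM DTT; AMC fluorescence gain over 60 s measured activity.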
Starred values were filed as active, the others as inactive; ? = inconclusive; . = no result given; [ ] = dose if it differs, or a comment. Unless noted, calls follow the shape of the dose curve; as a rule, active means well fitted rising curve with a large enough effect; inconclusive means small, poorly fitted or top-dose-only effect; inactive means no such curve, though single readings can be large or run the other way. Potency is read from the fitted curve at half-maximal effect.

SMILES	Cruzain noTriton	Lassa entry inh	Marburg entry inh	StopGo reporter	SARS PLP yeast	NS1 function inh	RE007 growth inh	Cruzain inh Det
COc1cc2c(c(OC)c1OC)-c1ccc(OC)c(=O)cc1C(NC(=O)c1ccccc1)CC2 (stereo not drawn)	.	?	?	1%	.	.	32%	.
CSc1cccc(CN2CCCC(CNC(=O)c3ccco3)C2)c1 (stereo not drawn)	.	6%	?	-14%	21%	-2%	-17%	.
CCC1C(=O)C(C)(C)C(=O)OC1c1ccc([N+](=O)[O-])cc1 (stereo not drawn)	.	1%[46.1 µM]	1%[46.1 µM]	-18%	4%	15%	0%	.
Cc1nnsc1C(=O)NNC(=O)c1ccc(C(F)(F)F)cc1	.	-1%	21%[46.1 µM]	27%	-1%	-1%	-12%	.
CC(=O)Nc1cccc(/C(C)=N/N2C(C)CCCC2C)c1 (stereo not drawn)	.	.	.	0%	-1%	-5%	3%	.
CCOC(=O)CNC(=O)N1CCCC(C(=O)c2cc(C)c(OC)c(C)c2)C1 (stereo not drawn)	.	-7%[46.1 µM]	16%[46.1 µM]	20%	3%	-22%	-9%	.
O=C1CCN(Cc2ccccc2)CCN1[C@H](CO)c1ccccc1	.	.	.	5%	4%	-1%	7%	.
CCc1nc2oc3ccccc3c(=O)c2c(=O)n1Cc1ccccc1	-5%	-6%	-2%	5%	1%	-17%	15%	0.2%
CCc1noc(C)c1C(=O)Nc1ccccc1C(C)(C)C	.	?	0%[46.1 µM]	0%	?	-7%	-10%	.
O=C1C(=O)N(CCN2CCOCC2)C(c2ccc(Cl)cc2)/C1=C(/O)c1ccc(S(=O)(=O)N2CCOCC2)cc1 (stereo not drawn)	.	4%	-1%[46.1 µM]	1%	3%	7%	-20%	.
COc1cccc(C(C(=O)NCc2ccccc2)N(C(=O)Cn2nnc3ccccc32)c2cccc(C(C)=O)c2)c1 (stereo not drawn)	8%	-23%[46.1 µM]	1%[46.1 µM]	7%	.	.	.	-2.7%
CC(C)(C)NC(=O)CN(C(=O)CCN1CCCc2ccccc21)C(C)(C)C	7%	17%	-24%	-18%	5%	3%	-13%	3.5%
COc1cccc(-c2cc(C(F)(F)F)n3nc(C)c(-c4ccccc4)c3n2)c1	12%	-1%[46.1 µM]	4%[46.1 µM]	-7%	.	.	.	-0.1%
COc1ccc(Nc2cc(C(=O)NCc3ccccc3)c3ccccc3n2)cc1	?	-6%[46.1 µM]	?	5%	.	.	.	0.3%
COC(=O)NNC(=S)NCc1ccc(C)cc1	6%	4%	15%	-13%	7%	4%	8%	1.8%
COc1ccc(CN2CCOCCOCCOCC2)cc1	.	-12%	12%	9%	0%	0%	-8%	.
CC(C)N(C(=O)Cn1c(SCC(=O)NC2CC2)nc2ccccc21)C(C)C	.	19%	-5%[46.1 µM]	17%	1%	-1%	7%	.
CCc1ccc2oc(-c3cc(N)ccc3Cl)nc2c1	2%	-7%	-27%	-78%	-7%	-58%	16µM*	-18%
Cc1c(Cl)cccc1NC(=O)c1cnc2sc(N3CCCC3)nn2c1=O	4%	-4%[46.1 µM]	.	-8%	.	.	.	-1.4%
COc1ccc(C(=O)O/N=C(/c2ccccc2)c2ccncc2)cc1	.	-21%	1%	14%	-1%	.	-7%	.

Rewritten with bars between the fields: entries from further up.
mol | Cruzain noTriton | Lassa entry inh | Marburg entry inh | StopGo reporter | SARS PLP yeast | NS1 function inh | RE007 growth inh | Cruzain inh Det
COc1ccc(Nc2cc(C(=O)NCc3ccccc3)c3ccccc3n2)cc1 | ? | -6%[46.1 µM] | ? | 5% | . | . | . | 0.3%
COC(=O)NNC(=S)NCc1ccc(C)cc1 | 6% | 4% | 15% | -13% | 7% | 4% | 8% | 1.8%
COc1ccc(CN2CCOCCOCCOCC2)cc1 | . | -12% | 12% | 9% | 0% | 0% | -8% | .
CC(C)N(C(=O)Cn1c(SCC(=O)NC2CC2)nc2ccccc21)C(C)C | . | 19% | -5%[46.1 µM] | 17% | 1% | -1% | 7% | .
CCc1ccc2oc(-c3cc(N)ccc3Cl)nc2c1 | 2% | -7% | -27% | -78% | -7% | -58% | 16µM* | -18%
Cc1c(Cl)cccc1NC(=O)c1cnc2sc(N3CCCC3)nn2c1=O | 4% | -4%[46.1 µM] | . | -8% | . | . | . | -1.4%
COc1ccc(C(=O)O/N=C(/c2ccccc2)c2ccncc2)cc1 | . | -21% | 1% | 14% | -1% | . | -7% | .

Continuation:
SMILES	Cruzain noTriton	Lassa entry inh	Marburg entry inh	StopGo reporter	SARS PLP yeast	NS1 function inh	RE007 growth inh	Cruzain inh Det
Cc1ccc(CNC(=O)C2CCC(=O)N(CCc3cccc(F)c3)C2)s1 (stereo not drawn)	.	11%	?	11%	-4%	3%	-5%	.
CC1CCCCC1NC(=O)CC1Oc2ccccc2NC1=O (stereo not drawn)	-15%	.	.	-24%	-7%	-11%	18%	-0.5%
CCOCC(=O)Nc1nnc(SCCOC)s1	1%	4%	5%	26%	3%	-11%	-2%	1.0%
CSc1nc(O)c(C(c2ccc(OC(C)C)cc2)c2c(O)nc(SC)[nH]c2=O)c(=O)[nH]1	.	4%	4%	-28%	.	.	-1%	.
Cc1cc(C)cc(N(CC(=O)NC2CC3CCC2C3)S(C)(=O)=O)c1 (stereo not drawn)	0%	-19%	-1%	1%	-1%	-7%	-3%	-1.8%
C/C(=N\NC(=O)CSCc1ccc([N+](=O)[O-])cc1)c1cccc(Br)c1	-6%	0%	4%	?	-6%	-5%	4%	-5.7%
CCCC[N+](CC#CCO)(CC#Cc1ccccc1)CCCC	.	1%	6%	-13%	1%	0%	-3%	.
CC(C)N(C(=O)COC(=O)c1ccc(O)cc1)C(C)C	-4%	1%	-12%	-17%	0%	-2%	-1%	4.9%
COc1ccc(OC)c(S(=O)(=O)Nc2cc(Cl)cc(Cl)c2)c1	-19%	-2%	-17%	75%[activator]	17%	-5%	15%	-11%
Cc1ccccc1OCC(=O)Nc1nnc(C2CCCC2)s1	.	.	.	3%	3%	0%	10%	.
Cc1nn(-c2ccccc2)c2c1N(CCCC(=O)NCc1ccc(N(C)C)cc1)C(=O)CS2	17%	-21%[46.1 µM]	.	?	.	.	.	-3.7%
COCc1nnc(NC(=O)c2cc(Cl)ccc2OC)s1	-4%	17%	0%	16%	-2%	-18%	-19%	7.6%
CC(C)c1nnc(NC(=O)CCC(=O)NC2CCCCCCC2)s1	-5%	3%	15%	24%	-1%	?	5%	3.1%
Cn1nc(C(=O)NNC(=O)c2ccc(Cl)c(S(N)(=O)=O)c2)c2ccccc2c1=O	.	0%	-1%[46.1 µM]	2%	-1%	.	15%	.
C=C(C)CN(CC)c1nc(N)c(C#N)c(CC#N)c1C#N	-9%	0%	10%	-22%	1%	14%	5%	-3.6%
COc1ccc(CN(C(=O)c2ccco2)C2CC(C)N(C)CC2C)cc1 (stereo not drawn)	-3%	11%	20%	-7%	-4%	-9%	0%	6.0%
Cc1cccc(S(=O)(=O)N2CN(Cc3ccco3)c3nc4ccccc4nc32)c1	25µM*	-11%	-14%	17%	-10%	-4%	-23%	-7.7%
O=C(c1ccc2c(=O)n3c(nc2c1)CCCCC3)N1CCc2ccccc21	.	.	.	14%	0%	1%	-2%	.
Fc1cccc(F)c1-n1c(CN2CCCC2)csc1=S	.	13%	?	-29%	2%	.	-3%	.
CCCN(CC(=O)Nc1ccc(Cl)cc1Cl)Cc1cc(=O)n2ccsc2n1	.	-3%	-2%[46.1 µM]	?	-3%	.	18%	.

Quoted at random: three entries already listed, in no set order.
SMILES	Cruzain noTriton	Lassa entry inh	Marburg entry inh	StopGo reporter	SARS PLP yeast	NS1 function inh	RE007 growth inh	Cruzain inh Det
CC(C)c1nnc(NC(=O)CCC(=O)NC2CCCCCCC2)s1	-5%	3%	15%	24%	-1%	?	5%	3.1%
Cn1nc(C(=O)NNC(=O)c2ccc(Cl)c(S(N)(=O)=O)c2)c2ccccc2c1=O	.	0%	-1%[46.1 µM]	2%	-1%	.	15%	.
Cc1cccc(S(=O)(=O)N2CN(Cc3ccco3)c3nc4ccccc4nc32)c1	25µM*	-11%	-14%	17%	-10%	-4%	-23%	-7.7%

(listing goes on)
SMILES	Cruzain noTriton	Lassa entry inh	Marburg entry inh	StopGo reporter	SARS PLP yeast	NS1 function inh	RE007 growth inh	Cruzain inh Det
O=C(CCSc1nnc(-c2ccco2)o1)Nc1ccccc1	4%	-8%	-19%	-5%	2%	-69%	-15%	0.1%
Cc1cccn2cc(-c3ccc(F)cc3)cc12	.	?	-10%	13%	0%	-3%	-11%	.
CCOc1ccc(C(=O)c2oc3ccccc3c2NC(=O)Cc2coc3cc(C)cc(C)c23)cc1	-1%	8%[46.1 µM]	7%[46.1 µM]	?	.	.	.	2.0%
COc1ccc(NC(=O)CSCC(=O)NC2(C)CCS(=O)(=O)C2)cc1 (stereo not drawn)	.	0%	?	-2%	1%	-12%	-4%	.
Cc1ccc(CCNC(=O)c2cc(-c3ccncc3)nc3ccccc23)cc1	.	.	.	-16%	-2%	-28%	2%	.
Cc1ccc(CN(C(=O)Nc2cccc(Cl)c2)c2ccccn2)cc1	-16%	-19%[46.1 µM]	3%[46.1 µM]	17%	.	.	.	-6.6%
CC(=O)Nc1ccc(S(=O)(=O)NC(C)C(=O)NCCc2ccc(F)cc2)cc1 (stereo not drawn)	.	-11%	21%[46.1 µM]	3%	3%	.	-3%	.
COc1ccc2[nH]cc(CCNC(=O)CS(=O)(=O)Cc3ccccc3)c2c1	.	?	?	-5%	-6%	-1%	9%	.
